Mtb bLac sens = beta-lactam sensitization of Mtb H37Rv, H37Rv; M. tuberculosis H37Rv growth with meropenem, percent inhibition; hits of this screen are not shown here; inhibition, % at 25 µM; 330,000 compounds, 0.27% hits;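 active = about 74% or more and at least 40 points above the plate without the antibiotic, then above 30% in a dose series; inconclusive = first-round hits that could not be retested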;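 also: growth measured after seven days incubation then overnight dye step; 0% = bacteria only wells and 100% = bacteria with antibiotic; twin plates without the antibiotic show which effects depend on it; some results filed as inactive read as strong as hits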
Mtb growth = M. tuberculosis H37Rv growth inhibitors, H37Rv strain (AID 1626); one-dose inhibition, % at 10 µM; IC50 in µM for titrated hits; 220,000 compounds, 0.95% hits; M. tuberculosis H37Rv growth inhibition; higher % means a stronger effect;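 active = confirmed in a dose series; inconclusive = inhibition above 80% but not taken into the dose series; inactive = below 80% or under 30% at every dose of the series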;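 also: bacteria incubated seven days before Alamar blue readout; 0% = bacteria only wells and 100% = bacteria with antibiotic wells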
YopH inh = YopH tyrosine phosphatase inhibitors, primary screen, biochemical, fluorescence Ex485/Em525; YopH tyrosine phosphatase [Yersinia enterocolitica]; inhibition, %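 (about 10 µM by stock and volumes)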; 140,000 compounds, 0.16% hits;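 active = inhibition of 50% or more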;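 also: controls were vehicle for no effect and minimum signal wells for full effect; inactives centre near -20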
Arbovirus inh = antivirals against arbovirus infection, primary screen, cell-based, full library, 10K replicate subset; arbovirus infection cell-based antiviral screen; inhibition, % at 10 µM; AID 1251, 2008; 200,000 compounds, 0.37% hits;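 active = inhibition from about 30%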;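 also: bluetongue infection of BSR cells; cell survival read as ATP light after 72 h; 0% = infected wells without compound and 100% = uninfected wells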
RecA splice inh = Mtb RecA intein splicing inhibitors, primary screen, biochemical, fluorescence, HTS; AID 2221, 2009; inhibition, %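 (about 9 µM by stock and volumes)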; cell-free RecA intein splicing; Protein RecA (Mycobacterium tuberculosis (strain ATCC 25618 / H37Rv)), P9WHJ3; 290,000 compounds, 0.75% hits; in the data active = inhibition above about 30%; inconclusive = no clear call, values can overlap the other calls;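 also: 0% = vehicle wells and 100% = reference inhibitor control wells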
Target sequence (P9WHJ3 whole entry, looked up, canonical isoform): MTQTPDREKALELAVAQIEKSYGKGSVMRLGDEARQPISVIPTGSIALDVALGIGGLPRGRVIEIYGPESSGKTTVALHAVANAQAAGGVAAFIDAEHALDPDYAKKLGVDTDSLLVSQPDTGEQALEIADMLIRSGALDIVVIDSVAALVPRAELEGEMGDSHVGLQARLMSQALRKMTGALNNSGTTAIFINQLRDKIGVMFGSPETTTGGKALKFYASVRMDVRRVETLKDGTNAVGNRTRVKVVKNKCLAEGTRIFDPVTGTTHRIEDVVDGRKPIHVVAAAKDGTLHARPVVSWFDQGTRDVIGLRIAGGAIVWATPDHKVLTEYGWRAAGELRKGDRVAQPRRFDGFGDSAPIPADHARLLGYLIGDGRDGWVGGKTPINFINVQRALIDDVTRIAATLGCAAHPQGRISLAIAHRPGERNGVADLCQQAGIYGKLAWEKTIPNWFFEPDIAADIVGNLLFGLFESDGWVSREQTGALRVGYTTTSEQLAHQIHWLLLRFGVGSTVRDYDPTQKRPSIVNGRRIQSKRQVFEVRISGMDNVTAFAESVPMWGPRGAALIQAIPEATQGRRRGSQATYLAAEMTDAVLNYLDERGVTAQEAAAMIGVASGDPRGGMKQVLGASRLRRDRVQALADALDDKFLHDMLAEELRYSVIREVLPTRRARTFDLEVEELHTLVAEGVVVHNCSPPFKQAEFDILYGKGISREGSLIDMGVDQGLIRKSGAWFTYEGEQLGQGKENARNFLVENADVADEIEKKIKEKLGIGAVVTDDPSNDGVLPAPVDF
Arbovirus inh repeat = further read-out of Arbovirus inh, marked with its call; inhibition, %; measured here: 10K subset replicate screen; many hits read low in the repeat;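 first of two repeat runs on a subset; 0% = infected and 100% = uninfected wells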
* marks the source's active call; other numbers are inactive results; ? = inconclusive; . = not tested or not shown. Only part of the results is shown. The share of hits here may be higher or lower than overall.

SMILES	Mtb bLac sens	Mtb growth	YopH inh	Arbovirus inh	RecA splice inh	others
CCc1ccc2[nH]c(=O)c(C(c3nnnn3CCOC)N3CCN(c4ccccc4)CC3)cc2c1 (stereo not given)	-5	2%	3	6	2.0
Cc1c(O)ccc2c(O)c(NC(=O)c3ccc4c(c3)CCC(C)(C)O4)c(=O)oc12	2	-10%	.	.	-2.1
Cc1ccc(NC(=O)CN(C)C2CCCCC2)cc1Br	-6	1%	.	-14	0.8
O=C(NC(=S)Nc1nc(-c2cccc([N+](=O)[O-])c2)cs1)c1ccccc1Cl	9	-2%	.	-25	.
O=C(Cc1ccccc1)NC(Nc1ccccc1)C(Cl)(Cl)Cl (stereo not given)	1	-1%	-23	-8	-1.1
COc1ccc(CN2CCNC(=O)C2CC(=O)NCCc2c[nH]c3ccccc23)c(OC)c1 (stereo not given)	-4	-4%	.	3	-1.2
CC(=O)c1c(C)nn(CC(O)COc2ccc3c(c2)CCC3)c1C (stereo not given)	9	8%	0	4	1.5
c1ccc(-c2cc3n(c2)CCc2ccccc2-3)cc1	34	5%	-16	-6	4.6
COc1ccc(C2CC(c3ccc4ccccc4c3)=NN2C(=O)CN2C(=O)CCC2=O)cc1 (stereo not given)	27	14%	.	0	0.6
NC(=O)C1CCN(c2oc(-c3ccccc3F)nc2S(=O)(=O)c2ccc(Cl)cc2)CC1	-2	4%	-32	1	-0.6
Cc1ccc(S(=O)(=O)N(CC(=O)N/N=C\c2cccs2)c2cccc3cccnc23)cc1	1	-9%	-26	3	-0.7
Cc1ccccc1OCCn1nc(C(=O)O)c2ccccc2c1=O	-5	-4%	-35	1	-1.1
COc1ccc(-n2nnc3c(=O)n(CC(=O)NCC4CCCO4)cnc32)cc1 (stereo not given)	.	-12%	-58	0	-0.2
NC(=O)CCCc1nc(-c2ccccc2)no1	-4	-8%	.	.	1.5
CC1=C(C(=O)Nc2ccccc2)C2(CCCCC2)C(C(N)=O)C(=S)N1 (stereo not given)	-6	-6%	-31	3	2.4
C=CCN(CC=C)Cc1c(C)[nH]c2ccc(C(=O)OCC)cc2c1=O	6	-8%	8	1	1.7
CC(C)c1nc2ccccc2n1CC(O)COC1CCCCC1 (stereo not given)	1	1%	.	9	2.0
O=C(CCC(=O)N1CCN(Cc2ccc(F)cc2)CC1)Nc1nnc(C2CCCCC2)s1	6	.	.	.	0.3
CCC(=O)N(CCC(c1ccc(C)cc1)c1ccco1)Cc1ccco1 (stereo not given)	-2	-10%	.	.	15
CC1CCC(NC(=O)C2CCC(CNS(=O)(=O)c3ccccc3)CC2)CC1 (stereo not given)	1	.	.	.	2.5
O=Cc1ccc(N2CCCCCC2)cc1	33	-4%	-12	3	-0.4
O=C(CC1CCCCC1)NCc1cn2ccsc2n1	-2	0%	-24	2	-4.4
Cc1ccc2cc(CN(Cc3ccco3)C(=O)c3ccccc3)c(=O)[nH]c2c1C	-1	9%	-34	-3	-2.2
COc1cccc(/C=C/C(=O)Nc2cccc(C(C)=O)c2)c1OC	5	6%	.	-1	2.0
Cc1cc2c(cc1S(=O)(=O)N1CCN(c3ccccc3)CC1)OCCN2C	2	.	.	.	2.5
(next part)
SMILES	Mtb bLac sens	Mtb growth	YopH inh	Arbovirus inh	RecA splice inh	others
CCOC(=O)CNS(=O)(=O)CCN1C(=O)c2ccccc2C1=O	-3	-6%	-17	-1	-1.9	Arbovirus inh repeat=1
Cc1cc(/C=N/n2cnnc2)c(C)n1-c1ccc(OCc2ccc(Cl)cc2Cl)cc1	100	8µM*	-7	-31	8.0
O=C(NNS(=O)(=O)c1ccc(Cl)cc1)c1ccc(S(=O)(=O)N2CCCCC2)cc1	5	2%	-26	0	1.8
Cc1ccc(S(=O)(=O)N(CC(=O)Nc2ccccc2C(=O)O)c2ccccc2C)cc1	8	-2%	.	9	1.9
O=C(COC(=O)c1ccccn1)NCc1cccs1	4	.	.	.	-0.7
O=C(Nc1ccc(-n2nncc2-c2ccco2)cc1)c1ccc(F)cc1	3	0%	-41	-4	-0.3
CCN(CC)CCOCCOC(=O)C1(c2ccccc2)CCCC1	4	-1%	.	.	-1.9
COC(=O)c1cc(OC)c(OC)cc1NC(=O)c1ccc(OC)c(OC)c1	.	16%	-6	6	-2.2
Cc1cc(C)n(-c2ncnc3ccccc23)n1	2	-3%	.	2	-0.4
Cc1ccccc1NC(=O)CSc1ccsc1[N+](=O)[O-]	12	2%	-12	0	2.7
Cc1cc[n+](CC(=O)c2ccc(NC(=O)c3ccccc3)cc2)cc1	-10	2%	.	10	-0.7
COCCN(CCOC)S(=O)(=O)c1ccc(C(=O)Nc2ccc(S(=O)(=O)Nc3nccc(C)n3)cc2)cc1	5	3%	.	-1	-1.6
CCOC(=O)c1[nH]c(COC(=O)C2CC(=O)N(Cc3ccccc3)C2)c(C(=O)OCC)c1C (stereo not given)	0	-4%	-58	-3	-1.9
CCCn1c(COc2ccc(C(=O)O)cc2)nc2ccccc21	-7	.	.	.	-7.0
Cn1c(=O)cc(OCC(=O)NCc2ccccn2)c2ccccc21	-14	-11%	-26	2	-0.3
COC(=O)c1ccc(NC(=S)NCCC2=CCCCC2)cc1	15	21%	-30	5	-0.2
Cc1noc(C)c1COc1ccc(C(=O)OCC(=O)N2CC(=O)Nc3ccccc32)cc1	2	-3%	-37	-7	0.5
Cc1ccc(/C=C2\CC(C)CC3=C2NC(=S)NC3c2ccc(C)cc2)cc1 (stereo not given)	0	52%	.	.	-1.7
COc1ccc(OCC(=O)N/N=C/c2ccc(O[C@@H]3O[C@H](CO)[C@@H](O)[C@H](O)[C@H]3O)cc2)cc1	-4	-8%	-45	-24	1.2
Cc1c(CN2CCCC(CO)(Cc3cccc(Cl)c3)C2)cnn1C (stereo not given)	-8	-5%	.	-5	1.3
COc1ccc2nc(NC(=O)CSc3nc(C)cc(C)n3)sc2c1	23	-6%	-3	4	1.4
NC(=O)c1ccc(OCC(F)(F)C(F)(F)C(F)(F)C(F)(F)C(F)(F)C(F)F)cc1	0	2%	-27	7	1.1
CC1CCCC(NC(=O)c2cn(C)c3ccc(S(=O)(=O)N4CCCC4)cc3c2=O)C1C (stereo not given)	0	.	-13	-29	-2.8
CCN1c2ccccc2S(=O)(=O)c2ccccc21	-1	.	.	.	-0.1
O=C(CN1CCCC1)Nc1sc2c(c1C(=O)Nc1ccc(Br)cc1)CCC2	?	.	.	.	0.8

Random excerpt: 2 records from the list.
SMILES	Mtb bLac sens	Mtb growth	YopH inh	Arbovirus inh	RecA splice inh	others
CC1CCCC(NC(=O)c2cn(C)c3ccc(S(=O)(=O)N4CCCC4)cc3c2=O)C1C (stereo not given)	0	.	-13	-29	-2.8
CCN(CC)CCOCCOC(=O)C1(c2ccccc2)CCCC1	4	-1%	.	.	-1.9

Returning to the listing, starting two compounds before the break.
SMILES	Mtb bLac sens	Mtb growth	YopH inh	Arbovirus inh	RecA splice inh	others
CCN1c2ccccc2S(=O)(=O)c2ccccc21	-1	.	.	.	-0.1
O=C(CN1CCCC1)Nc1sc2c(c1C(=O)Nc1ccc(Br)cc1)CCC2	?	.	.	.	0.8
CCCNC(=O)CN1C(=O)NC2(CCCc3cc(OC)ccc32)C1=O (stereo not given)	-7	3%	-5	4	-1.2
COc1ccc(-n2nc3c(=O)[nH][nH]c3cc2=O)cc1	-1	11%	.	-1	-2.3
COc1ccc(NC(=O)NN2CCN(C)CC2)cc1OC	-9	.	.	.	-2.5
O=C(CNS(=O)(=O)c1ccccc1)OCC(=O)c1ccc(Br)cc1	4	.	.	.	1.3
Cc1ccccc1-c1nc(CN2CCCC(C(=O)NCc3cccnc3)C2)c(C)o1 (stereo not given)	3	-1%	-20	5	-0.1
Cc1cccc(N2CCN(S(=O)(=O)c3ccc4[nH]c(=O)ccc4c3)CC2)c1C	1	.	.	.	3.0
Clc1ccc(C2=NN(c3ccccc3)C(c3ccco3)C2)cc1 (stereo not given)	6	7%	.	.	-1.2
CCS(=O)(=O)c1ccc2oc(SCC(=O)c3ccco3)nc2c1	2	1%	-25	0	6.8
O=C(/C=C/c1ccccc1)N(c1ccccn1)C1CCCCC1	3	16%	-13	2	3.9
COc1cccc(-c2nnc(N)o2)c1	3	3%	.	.	-1.8
COc1cc(-n2c(=O)c3ccccc3n(CC(=O)c3ccc(Br)cc3)c2=O)cc(OC)c1OC	1	-1%	.	3	-2.3
CCn1c(/C=C/Nc2ccccc2)[n+](CC)c2ccc(Cl)cc21	-5	1%	-22	5	-2.6
COc1ccc(S(=O)(=O)N(C(=O)c2ccncc2)c2ccc3oc4c(c3c2)CCCC4)cc1	.	-2%	-27	-25	29
CCOc1ccc(C(C)=O)cc1NC(=O)/C=C\C(=O)O	-2	1%	.	5	.
N=C1C(c2ccccc2)=C(O)CN1NC(=O)c1ccc(Cl)cc1	0	4%	.	0	.
Nc1ccccc1C(=O)NNc1ncc(C(F)(F)F)cc1Cl	35	1%	-18	-10	2.1
CO[C@H]1C=CO[C@@]2(C)Oc3c(C)c(O)c4c(O)c(c(C=NN5CCN(C)CC5)c(O)c4c3C2=O)NC(=O)C(C)=CC=C[C@H](C)[C@H](O)[C@@H](C)[C@@H](O)[C@@H](C)[C@H](OC(C)=O)[C@@H]1C	100	?	24	-1	?
Cc1cc(C)n(-c2nc3ccccc3nc2Nc2ccc(CC(=O)O)cc2)n1	8	15%	-14	9	0.4	Arbovirus inh repeat=1
CCn1c2ccccc2c2cc(NC(=O)CCCN3C(=O)CCC3=O)ccc21	19	2%	30	-2	-1.5
Cc1nc2ccc(NC(=O)CCC3CCCC3)cc2s1	87	.	.	.	-0.7
O=C1OC(N2C(=O)CC[C@H]2C(=O)Nc2ccc3c(c2)OCO3)c2ccccc21 (stereo not given in full)	-4	.	.	.	0.5
CC(=O)NC(Cc1ccccc1)C(=O)NC1CCN(c2ncccc2[N+](=O)[O-])CC1 (stereo not given)	-15	-4%	-7	3	0.1
Cc1cccc(C(=O)N/N=C/c2ccc(OC3CSC3)cc2)c1	9	5%	-2	-4	-0.2
CC(C)OP(=O)(c1ccc(N(C)C)cc1)C(O)c1ccccc1F (stereo not given)	-8	-6%	6	6	-2.8
COc1ccccc1N(CC(=O)NC1CCCC1)C(=O)CCC(=O)Nc1ccccn1	0	.	.	.	-0.2

By substructure: the compounds so far containing a nitro group on carbon (3)
SMILES	Mtb bLac sens	Mtb growth	YopH inh	Arbovirus inh	RecA splice inh	others
O=C(NC(=S)Nc1nc(-c2cccc([N+](=O)[O-])c2)cs1)c1ccccc1Cl	9	-2%	.	-25	.
Cc1ccccc1NC(=O)CSc1ccsc1[N+](=O)[O-]	12	2%	-12	0	2.7
CC(=O)NC(Cc1ccccc1)C(=O)NC1CCN(c2ncccc2[N+](=O)[O-])CC1 (stereo not given)	-15	-4%	-7	3	0.1

Remaining list, next part
SMILES	Mtb bLac sens	Mtb growth	YopH inh	Arbovirus inh	RecA splice inh	others
Cc1cccc(NC(=O)C(C)C(=O)c2ccccc2)c1 (stereo not given)	5	.	.	.	0.9
CN(/N=C/c1cc(Br)cc(Br)c1O)c1cccc(C(F)(F)F)n1	100	.	.	.	4.0
O=C(CSc1nc(C2CC2)nc2ccccc12)NCc1ccc2c(c1)OCO2	12	.	-19	5	0.8
O=C(N/N=C/c1ccccn1)c1cccc(S(=O)(=O)N2CCCC2)c1	1	-9%	.	.	2.1
CCN(CC)c1nc(N)c2c(N)n(-c3ccccc3C)c(=S)c(C#N)c2c1C#N	-9	-5%	-32	6	5.8
CCCCn1c(N)c(N(CC(C)C)C(=O)C2CSC3(C)CCC(=O)N23)c(=O)[nH]c1=O (stereo not given)	0	.	.	.	0.2
O=C(CCCN1C(=O)/C(=C/c2cccs2)SC1=S)Nc1cc([N+](=O)[O-])ccc1O	-3	.	.	.	3.6
CCOC(=O)CCC(=O)N1CCOCCN(C(=O)CCC(=O)OCC)CCOCC1	-6	-1%	-46	-6	0.7
Cc1ccc(Cc2c(C)nc3nc(SCC(=O)N4CCC5(CC4)OCCO5)nn3c2C)cc1	2	-25%	-32	2	1.7
CCOc1cc(S(=O)(=O)N2CCN(C(=O)c3ccco3)CC2)ccc1F	-1	.	.	.	-0.8
c1ccc(Cc2ccc(OCCN3CCOCC3)cc2)cc1	3	.	.	.	1.9
O=C(c1nc2ccccn2c1CNCCn1ccc2ccccc21)N1CCOCC1	-1	-5%	.	.	0.6
Cc1ccccc1NC(=O)/C(C#N)=C/c1ccccc1C(F)(F)F	9	3%	-25	5	8.0
Cc1c(Cl)cccc1NC(=O)CC(NCCN1CCOCC1)C(=O)O (stereo not given)	-4	.	.	.	-0.4
CCOc1ncccc1C(=O)OCC(=O)N1CCN(S(=O)(=O)c2ccccc2)CC1	-3	-3%	-38	0	-7.3
